T cruzi repl – T. cruzi replication inhibition. T. cruzi beta-gal in NIH3T3, luminescence, 90 h. inhibition, % (test concentration not listed). 300,000 tested, 1.4% active. AID 1885;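 active means mean inhibition across valid replicates above about 55%, limit read from the data; inconclusive means mean below that limit but half or more replicates reach it; inactive means mean below it, under half of replicates reach it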;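 further: signal also drops with host cell toxicity which is not excluded here; 0% = plate median of DMSO wells and 100% = zero luminescence signal; higher percent means less beta-gal luminescence so fewer parasites; stock transfer was 50 nL into about 50 µL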
A1 inh – inhibitors of the anti-apoptotic protein A1, read as caspase activation; 330,000 tested, 0.066% active; caspase activation, % (test concentration not listed); AID 2462; MEF A1-2A-BIM cells, Caspase-Glo 3/7 luminescence, 3 h; percent of clofoctol response, vehicle zero;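 active means over half of replicate activation scores above 10%, or exactly half above 10 with the replicate mean above 10; inconclusive means replicate mean below 10 yet half the replicates above 10; inactive means over half of replicates below 10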;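 further: wells of about 30 µL received 50 nL stock; many hits fall short of the cut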
ALR H2O2 inh – inhibitors of human sulfhydryl oxidase ALR; P55789; purified ALR, DTT oxidation, H2O2 HRP-luminol luminescence; inhibition, % (no concentration beside the values); 290,000 tested, 3.8% active;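 active means mean and each replicate at 75% or more; inconclusive means only one of the two met; inactive means neither met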;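 further: stock transfer was 7.5 nL into about 7.5 µL; 0% = neutral wells and 100% = wells with inactivated enzyme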
Target sequence (P55789 whole entry, looked up): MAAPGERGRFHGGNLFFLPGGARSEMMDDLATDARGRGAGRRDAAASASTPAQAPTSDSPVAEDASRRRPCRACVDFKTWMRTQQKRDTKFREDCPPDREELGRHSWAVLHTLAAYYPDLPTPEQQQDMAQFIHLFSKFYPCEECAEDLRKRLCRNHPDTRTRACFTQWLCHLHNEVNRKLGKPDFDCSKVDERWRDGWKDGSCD
Calb FLC – affects C. albicans growth with fluconazole; 300,000 tested, 0.57% active; growth inhibition, % (test concentration not listed); AID 1979; C. albicans CaCi-2 (fluconazole-resistant clinical isolate) + fluconazole, Alamar Blue growth, 48 h;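 active means most replicates above 75%; inconclusive means exactly half above 75%; inactive means most below 75%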;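 further: all wells also contain fluconazole at 8 µg/ml as a sub-toxic cotreatment; 0% = median of DMSO wells and 100% = median of geldanamycin control wells; wells of about 8 µL received 7.5 nL stock; the first replicate is given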
Beta2AR agonist – agonists of human beta-2 adrenergic receptor inducing internalization; P07550; response, % (no concentration beside the values); AID 504454; 340,000 tested, 0.43% active; Am2.2-beta2AR cells, FAP receptor internalization, flow cytometry; reference of the scale not given here;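 active means response above a set limit, near 3 SD of response in nonfluorescent compounds, cut at about 42% in these data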;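 further: stock transfer was 100 nL into about 11 µL; a reference agonist was the positive control; negative values mostly stem from fluorescent compounds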
Target sequence (P07550 whole entry, looked up): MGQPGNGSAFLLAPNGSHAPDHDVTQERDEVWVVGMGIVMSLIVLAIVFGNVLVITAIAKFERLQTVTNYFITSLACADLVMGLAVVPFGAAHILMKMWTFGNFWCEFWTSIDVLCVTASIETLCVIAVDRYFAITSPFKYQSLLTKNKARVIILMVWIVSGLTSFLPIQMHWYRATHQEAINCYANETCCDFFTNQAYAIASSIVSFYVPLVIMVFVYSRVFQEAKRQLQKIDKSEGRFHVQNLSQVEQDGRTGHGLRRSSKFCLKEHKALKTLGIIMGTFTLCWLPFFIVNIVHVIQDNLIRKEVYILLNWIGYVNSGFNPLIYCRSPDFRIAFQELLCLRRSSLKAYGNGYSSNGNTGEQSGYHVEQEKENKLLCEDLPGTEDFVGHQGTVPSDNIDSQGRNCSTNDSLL
rRNA inh HTS – inhibits bacterial ribosomal RNA function over humanized ribosomes; E. coli WT GFP vs humanized-ribosome RFP mutants, fluorescence, 24 h; stronger effect = lower value; DMSO median 0, no signal -100; GFP signal change (wild-type ribosome), % (no concentration beside the values); 350,000 tested, 1.6% active; AID 720706;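 active means significant combined selectivity score with lowered wild-type GFP, culture density cut under 30%, mutant RFP and density less affected; inactive means any of these conditions unmet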; further: one replicate is shown; some compounds called inactive have numbers as strong as hits
Beta apoptosis – beta cell apoptosis inhibition. INS-1E cytokine-induced death, ATP luminescence, 48 h; percent of positive-control rescue, neutral wells zero. protection from apoptosis, % (concentration not given with the values). 300,000 tested, 0.8% active;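 active means all replicates at 75% or more, or half of them and the mean; inconclusive means half reach 75% but not the mean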;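 further: 0% = cytokine-treated negative control wells and 100% = positive control rescue; higher means more ATP so stronger rescue from cytokine killing; wells of about 40 µL received 100 nL stock; the first replicate is given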
LANA-H2A inh – blocks KSHV LANA binding to histone H2A/H2B. AID 2629. 320,000 tested, 0.6% active. cell-free LANA-H2A/H2B peptide, fluorescence polarization. inhibition, % (no concentration beside the values); in the data active means inhibition mostly above about 10%, no sharp cut-off; inactive means mostly below about 6.7%;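 further: stock transfer was 7.5 nL into about 10 µL; 0% = median of vehicle wells and 100% = median of positive control wells; one replicate is shown; the record names a cut of 25% in any replicate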
rRNA inh HTS OD600 – further read-out of rRNA inh HTS, marked with its call; OD600 change, %; measured here: OD600 growth;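 optical density of the mix in the first replicate; 0 = DMSO median and -100 = no signal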
rRNA inh HTS RFP – second read-out of rRNA inh HTS, no call of its own (marks repeat the call); RFP signal change, %; measured here: RFP humanized mutant strains;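 first replicate; 0 = DMSO median and -100 = no signal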
* hit, by the source's call; & = joins results of further samples.

CCCc1nnc(NC(=O)CCC(=O)N2CCN(Cc3cc(Cl)ccc3OC)CC2)s1 was read as T cruzi repl 44, A1 inh 0.1, ALR H2O2 inh -2, Beta2AR agonist -2, rRNA inh HTS 9, Beta apoptosis 1, LANA-H2A inh -7.0, rRNA inh HTS OD600 14 and rRNA inh HTS RFP 5.6.
COc1ccc(C(N)=O)cc1N was read as T cruzi repl -13, A1 inh 1.3, ALR H2O2 inh -9, Calb FLC 4, Beta2AR agonist 5, rRNA inh HTS 18, Beta apoptosis 0, LANA-H2A inh -9.5, rRNA inh HTS OD600 13 and rRNA inh HTS RFP 0.7.
Screening COc1ccccc1Nc1nc(N)nc(CN2CCC(C)CC2)n1 returned T cruzi repl -5, A1 inh -0.1, ALR H2O2 inh -2, Calb FLC inconclusive, Beta2AR agonist -3, rRNA inh HTS 15, Beta apoptosis -7, LANA-H2A inh 3.7, rRNA inh HTS OD600 5 and rRNA inh HTS RFP -11.
CCOc1cc(NC(=S)NCCCOC)c(OCC)cc1NC(=O)c1ccco1 was read as T cruzi repl -4, A1 inh 0.8, ALR H2O2 inh -11, Calb FLC 6, Beta2AR agonist -26, Beta apoptosis -1 and LANA-H2A inh -1.3.
For C/C(=N\NC(=S)NCc1ccccc1)c1ccc2ccccc2c1 the results were T cruzi repl 6, A1 inh 0.4, ALR H2O2 inh -6, Calb FLC 3, Beta2AR agonist -4, Beta apoptosis -1 and LANA-H2A inh -5.7.
Screening CCOc1ccc(NC(=O)COC(=O)C2(C)CC2(Cl)Cl)c([N+](=O)[O-])c1 (configuration not stated) returned T cruzi repl 8, A1 inh -0.2, ALR H2O2 inh -4, Calb FLC 6, Beta2AR agonist 0, rRNA inh HTS -20, LANA-H2A inh -0.3, rRNA inh HTS OD600 -20 and rRNA inh HTS RFP 0.3.
`CC1=C(C(=O)OCc2ccccc2)C(c2ccccc2-c2ccccc2)NC(=O)N1CCCCCC(=O)O` (configuration not stated) gave T cruzi repl 8, A1 inh 0.4, ALR H2O2 inh 3, Calb FLC 19, Beta2AR agonist 2, rRNA inh HTS -1, LANA-H2A inh 5.0, rRNA inh HTS OD600 0 and rRNA inh HTS RFP -3.4.
Screening Cc1ccc(S(=O)(=O)N2CCOCC2)cc1C(=O)OC(C)C(=O)c1ccccc1 (configuration not stated) returned T cruzi repl 2, A1 inh -0.6, Calb FLC 0, Beta2AR agonist 0, rRNA inh HTS -7, Beta apoptosis -5, LANA-H2A inh -1.9, rRNA inh HTS OD600 -16 and rRNA inh HTS RFP 1.7.
`CC12CCC(=O)N1C(C(=O)NNC(=O)c1ccc(Cl)cc1)CS2` (configuration not stated) gave A1 inh -0.2, ALR H2O2 inh -8, Beta2AR agonist -1, rRNA inh HTS -2, Beta apoptosis -7, LANA-H2A inh 32*, rRNA inh HTS OD600 -5 and rRNA inh HTS RFP 1.5.
COC(=O)c1cccc(NC(=O)Cn2cnc3c2c(=O)n(C)c(=O)n3C)c1 was read as T cruzi repl -5, A1 inh 0.9, ALR H2O2 inh -1, Calb FLC 4, Beta2AR agonist -5, Beta apoptosis -6 and LANA-H2A inh -1.2.
For Cc1ccc(C2C3=C(CC(C)(C)CC3=O)OC3=C2C(=O)CC(C)(C)C3)cc1 the results were T cruzi repl 22, A1 inh 0.4, Calb FLC inconclusive, Beta2AR agonist -4, rRNA inh HTS -1, Beta apoptosis -10, LANA-H2A inh -1.6, rRNA inh HTS OD600 -2 and rRNA inh HTS RFP -0.5.
For Nc1c(C(=O)CCC(=O)O)oc2ccc(Cl)cc12 the results were T cruzi repl -18, A1 inh -1.3, ALR H2O2 inh 7, Calb FLC -4, Beta2AR agonist 5, rRNA inh HTS 0, Beta apoptosis 6, LANA-H2A inh 0.1, rRNA inh HTS OD600 -4 and rRNA inh HTS RFP -0.7.
Screening CN(C(=O)COC(=O)CSc1ccc([N+](=O)[O-])cc1)C1CCS(=O)(=O)C1 (configuration not stated) returned T cruzi repl -4, A1 inh 0.6, ALR H2O2 inh 37, Calb FLC 7, Beta2AR agonist -1, rRNA inh HTS 14, Beta apoptosis 7, LANA-H2A inh 2.0, rRNA inh HTS OD600 9 and rRNA inh HTS RFP 3.1.
`CCOC(=O)C1CCCN(CC(O)COc2cccc(C)c2)C1` (configuration not stated) gave T cruzi repl 7, A1 inh -0.7, ALR H2O2 inh -7, Calb FLC -1, Beta2AR agonist 6 and LANA-H2A inh 2.4.
CCOc1ccc(C(=O)NCCO)cc1 was read as T cruzi repl -1, A1 inh 1.6, ALR H2O2 inh -2, Calb FLC 19, Beta2AR agonist 3, rRNA inh HTS 10, Beta apoptosis -2, LANA-H2A inh 2.0, rRNA inh HTS OD600 4 and rRNA inh HTS RFP 2.2.
`C[C@H](CO)N1C[C@H](C)[C@@H](CN(C)C(=O)NC2CCCCC2)Oc2c(cccc2N(C)C)C1=O` gave A1 inh -0.2, ALR H2O2 inh 0, Beta2AR agonist -1, rRNA inh HTS 1&3, Beta apoptosis 3, LANA-H2A inh -2.7, rRNA inh HTS OD600 -3&7 and rRNA inh HTS RFP -0.6&1.6.
Screening Cc1nccn1CCc1nc(N)nc(N)n1 returned T cruzi repl -9, A1 inh -0.9, ALR H2O2 inh -2, Calb FLC 2, Beta2AR agonist -4, Beta apoptosis -4 and LANA-H2A inh 0.8.
Screening C#Cc1ccc([C@@H]2C=C(C(=O)Nc3ccccc3)O[C@H](OCC)[C@H]2CCCO)cc1 returned T cruzi repl -3, A1 inh 0.2, ALR H2O2 inh -17, Calb FLC 29, Beta2AR agonist -6, rRNA inh HTS 2, Beta apoptosis -8, LANA-H2A inh 1.0, rRNA inh HTS OD600 -10 and rRNA inh HTS RFP 3.5.
For COc1cc(/C=N/NS(=O)(=O)c2ccc(C)c([N+](=O)[O-])c2)cc([N+](=O)[O-])c1O the results were T cruzi repl 3, A1 inh 0.2, ALR H2O2 inh 93*, Calb FLC 10, Beta2AR agonist 8, rRNA inh HTS -16, Beta apoptosis -2, LANA-H2A inh -2.0, rRNA inh HTS OD600 -14 and rRNA inh HTS RFP -0.3.
COCCN(C(=O)CCc1nnc(CCc2c[nH]c3ccccc23)o1)C(C)C was read as T cruzi repl -3, A1 inh -0.5, ALR H2O2 inh -9, Calb FLC -9, Beta2AR agonist -3, rRNA inh HTS 10, Beta apoptosis -4, LANA-H2A inh -2.9, rRNA inh HTS OD600 8 and rRNA inh HTS RFP -2.5.
Cc1cccc(Nc2nc(NCc3ccco3)nc(N)c2[N+](=O)[O-])c1 was read as T cruzi repl -4, A1 inh 0.9, ALR H2O2 inh -3, Calb FLC -1, Beta2AR agonist -5, rRNA inh HTS 4, Beta apoptosis 5, LANA-H2A inh -1.5, rRNA inh HTS OD600 -6 and rRNA inh HTS RFP 2.2.
Screening Cc1cccc(CCNC(=O)Cn2ncc3c([nH]c4ccc(C)cc43)c2=O)c1 returned T cruzi repl -11, A1 inh -2.0, ALR H2O2 inh 0, Calb FLC -2, Beta2AR agonist 5, rRNA inh HTS 2, Beta apoptosis -2, LANA-H2A inh -3.2, rRNA inh HTS OD600 16 and rRNA inh HTS RFP 0.0.
For Cc1ccccc1-c1nn(-c2ccc(F)cc2F)cc1CNC1CC1 the results were T cruzi repl 13, A1 inh -0.6, ALR H2O2 inh -7, Calb FLC -13, Beta2AR agonist -9, rRNA inh HTS 8, Beta apoptosis -5, LANA-H2A inh 2.3, rRNA inh HTS OD600 0 and rRNA inh HTS RFP 0.0.
Screening CCCS(=O)(=O)c1cn2cccc(N)c2c1S(=O)(=O)CCC returned T cruzi repl 5, A1 inh 1.3, ALR H2O2 inh 23, Calb FLC 6, Beta2AR agonist 5, Beta apoptosis -5 and LANA-H2A inh 3.2.
Screening Cc1nc2ccc(NC(=O)CSc3nnc(C)s3)cc2[nH]1 returned T cruzi repl -1, A1 inh 0.0, ALR H2O2 inh -2, Calb FLC -4, Beta2AR agonist -12, rRNA inh HTS 7, Beta apoptosis -2, LANA-H2A inh -0.9, rRNA inh HTS OD600 -2 and rRNA inh HTS RFP 0.1.
For COc1ccc(NC(=O)N2CCC(c3nc4ccccc4[nH]3)CC2)cc1 the results were T cruzi repl -7, A1 inh 0.3, Calb FLC 9, Beta2AR agonist 2, rRNA inh HTS -22*, Beta apoptosis -1, LANA-H2A inh 6.6, rRNA inh HTS OD600 -17* and rRNA inh HTS RFP -4.1*.
`Cc1cccc(Sc2ccc([N+](=O)[O-])cc2[N+](=O)[O-])n1` gave T cruzi repl 36, A1 inh 0.2, ALR H2O2 inh -56, Calb FLC 40, Beta2AR agonist -1, rRNA inh HTS 5, Beta apoptosis 3, LANA-H2A inh 0.3, rRNA inh HTS OD600 4 and rRNA inh HTS RFP -1.6.
Screening O=C(NCCc1c[nH]c2ccc(Cl)cc12)c1cccnc1 returned T cruzi repl -17, A1 inh 0.0, ALR H2O2 inh 7, Calb FLC 2, Beta2AR agonist 8, rRNA inh HTS -3, Beta apoptosis 3, LANA-H2A inh -0.6, rRNA inh HTS OD600 -4 and rRNA inh HTS RFP 5.8.
CC1(CCl)N([O-])C2=C(CCCC2)[N+]1=O (configuration not stated) was read as T cruzi repl 7, A1 inh -0.8, ALR H2O2 inh -16, Calb FLC -3, Beta2AR agonist 4, rRNA inh HTS 11, Beta apoptosis 2, LANA-H2A inh -5.9, rRNA inh HTS OD600 8 and rRNA inh HTS RFP -0.2.
For Nc1ccc(-c2nc3ccc(-c4nc5ccccc5o4)cc3[nH]2)cc1 the results were T cruzi repl 11, A1 inh -0.3, ALR H2O2 inh 48, Calb FLC 0, Beta2AR agonist 11, Beta apoptosis 18 and LANA-H2A inh -2.7.
For Cn1c(=O)c2[nH]c(N3CCOCC3)nc2n(-c2ccccc2)c1=O the results were T cruzi repl -23, A1 inh 0.5, ALR H2O2 inh 15, Calb FLC 18, Beta2AR agonist 1, rRNA inh HTS 18, Beta apoptosis -4, LANA-H2A inh 1.5, rRNA inh HTS OD600 10 and rRNA inh HTS RFP -0.5.
COc1ccccc1OCc1nnc(SCC(=O)c2cc(Cl)ccc2OC)o1 was read as T cruzi repl -9, A1 inh 0.9, ALR H2O2 inh 14, Calb FLC 19, Beta2AR agonist -5, Beta apoptosis -5 and LANA-H2A inh -0.3.
Screening CCCCc1ccc(CC2S/C(=C(\C#N)C(=O)N3CCOCC3)N(c3ccccc3)C2=O)cc1 (configuration not stated) returned T cruzi repl -3, A1 inh -0.2, ALR H2O2 inh -11, Calb FLC 15, Beta2AR agonist 2, Beta apoptosis -14 and LANA-H2A inh -4.1.
For O=C(CCNC(=O)c1ccc(Cl)cc1)Nc1ccccc1N1CCCCC1 the results were T cruzi repl 2, A1 inh -0.7, ALR H2O2 inh 3, Calb FLC 10, Beta2AR agonist -12, rRNA inh HTS 1, Beta apoptosis -3, LANA-H2A inh -2.5, rRNA inh HTS OD600 -3 and rRNA inh HTS RFP -0.8.
Screening Cc1cc(C(C2C(=O)CC(C)(C)CC2=O)C2C(=O)CC(C)(C)CC2=O)cc(C)c1OC(F)F returned T cruzi repl -7, A1 inh -0.2, ALR H2O2 inh 60, Calb FLC 3, Beta2AR agonist 14, rRNA inh HTS 0, Beta apoptosis -2, LANA-H2A inh 1.5, rRNA inh HTS OD600 1 and rRNA inh HTS RFP -1.5.
CCCCCC1CC(CC(=O)NC(=S)Nc2ccccc2Cl)C(=O)O1 (configuration not stated) was read as T cruzi repl -13, A1 inh 3.0, ALR H2O2 inh -14, Calb FLC -23, Beta2AR agonist 6 and LANA-H2A inh -9.7.

Screens deposited in PubChem by several laboratories.

Some of the compounds tested; the hit share may differ from the screen's.
